Bioassay records from PubChem BioAssay.
rRNA inh HTS: reduced GFP signal of wild-type E. coli, primary screen, bacterial rRNA inhibitor project, GFP/RFP fluorescence, OD600, single point | E. coli WT GFP vs humanized-ribosome RFP mutants, 24 h; stronger effect = lower value; DMSO median 0, no signal -100 | GFP signal change (wild-type ribosome), % (test concentration not listed) | hit rate 1.6% among 350,000 | AID 720706, 2013;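 active = significant combined selectivity score with lowered wild-type GFP, culture density cut under 30%, mutant RFP and density less affected; inactive = any of these conditions unmet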; note: one replicate is shown; some compounds called inactive have numbers as strong as hits
MLL AF4-AF9 inh: inhibitors of AF4 peptide binding to AF9, primary screen, biochemical, AlphaScreen, biotin-AF4 peptide, FLAG-AF9, single point; inhibition, % at 10 µM; AID 651704, 2012; hit rate 0.47% among 350,000;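 active = every replicate reaching a set inhibition limit, whatever the replicate mean, cut at about 25% in these data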;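 note: 0% = plate neutral control median and 100% = total signal loss; the record names both 10 and 1 µM as test concentration; the first replicate is given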
Target sequence (P42568 whole entry, looked up): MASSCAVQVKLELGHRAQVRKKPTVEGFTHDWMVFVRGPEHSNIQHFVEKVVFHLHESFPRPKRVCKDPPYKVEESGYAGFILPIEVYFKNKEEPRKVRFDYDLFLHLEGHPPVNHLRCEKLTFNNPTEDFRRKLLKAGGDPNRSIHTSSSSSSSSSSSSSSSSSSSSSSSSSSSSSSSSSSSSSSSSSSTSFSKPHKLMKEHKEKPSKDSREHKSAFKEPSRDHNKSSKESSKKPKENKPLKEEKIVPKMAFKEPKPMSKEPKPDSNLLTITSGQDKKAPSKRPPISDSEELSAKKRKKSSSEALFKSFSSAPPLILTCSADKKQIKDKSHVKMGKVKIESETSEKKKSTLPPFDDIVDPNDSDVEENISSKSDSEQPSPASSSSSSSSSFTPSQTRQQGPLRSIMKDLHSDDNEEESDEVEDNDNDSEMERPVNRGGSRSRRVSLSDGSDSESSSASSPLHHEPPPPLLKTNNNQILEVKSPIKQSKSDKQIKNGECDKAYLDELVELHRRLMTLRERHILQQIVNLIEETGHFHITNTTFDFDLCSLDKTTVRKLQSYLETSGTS
FGF22 binding: binders of human FGF22 protein, primary screen, FGF22 synaptogenesis inhibitor project, biophysical, thermal shift, single point | Fibroblast growth factor 22 (Homo sapiens), Q9HCT0 | recombinant FGF22 thermal shift, SYPRO orange fluorescence; percent of sucrose octasulfate shift, DMSO zero | calls only at 9.99 µM | hit rate 1.5% among 340,000;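 active = melting point raised past a set limit in the mean and every replicate; three in four hits are not shown here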
Target sequence (Q9HCT0 whole entry, looked up): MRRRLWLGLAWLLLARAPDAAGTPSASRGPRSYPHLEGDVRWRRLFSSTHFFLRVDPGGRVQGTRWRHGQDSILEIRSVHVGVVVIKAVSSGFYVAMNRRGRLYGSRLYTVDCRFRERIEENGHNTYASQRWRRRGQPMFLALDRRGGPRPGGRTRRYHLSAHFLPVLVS
rRNA inh HTS OD600: further read-out of rRNA inh HTS, marked with its call; OD600 change, %; measured here: OD600 growth;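 optical density of the mix in the first replicate; 0 = DMSO median and -100 = no signal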
rRNA inh HTS RFP: further read-out of rRNA inh HTS, marked with its call; RFP signal change, %; measured here: RFP humanized mutant strains;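 first replicate; 0 = DMSO median and -100 = no signal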
Numbers without * were called inactive; i = inactive; / = no result given; + = active, no number; & = joins results of further samples. Only part of the results is shown; the hit share may differ from the screen's.

The line under a structure holds: rRNA inh HTS	rRNA inh HTS OD600	rRNA inh HTS RFP	MLL AF4-AF9 inh	FGF22 binding
- CC(C)NC(=O)N(C)C[C@H]1Oc2ccc(NC(=O)Nc3ccc(C(F)(F)F)cc3)cc2C(=O)N([C@@H](C)CO)C[C@H]1C
→ 0.2	-10.8	0.6	3.8	i
- COc1ccc(C(=O)NC(=S)Nc2ccc3[nH]c(=O)[nH]c3c2)cc1Br
→ -1.9	6.7	-4.4	0.2	i
- N#Cc1ccc(S(=O)(=O)N2CCN(C(=O)c3cn(-c4ccccc4)nc3-c3cccnc3)CC2)cc1
→ 8.0	19.4	-3.6	1.0	i
- CC(C)OC(=O)N(C)C[C@H]1OCc2ccccc2-c2ccccc2C(=O)N([C@H](C)CO)C[C@H]1C
→ 3.8	1.2	-2.3	-1.9	i
- COc1ccc(-c2ccc([C@@H]3[C@@H](CO)N(C(=O)c4cccc(F)c4)[C@H]3C#N)cc2)cc1
→ -3.6	11.8	-3.6	-0.9	i
- O=C(N[C@@H]1CC[C@H](CC(=O)N2CCc3ccccc3C2)O[C@H]1CO)C1CCOCC1
→ -1.9	0.8	-0.4	-17.5	i
- C[C@H]1CN[C@@H](CCO)/C1=C\c1ccccc1
→ 8.7	11.3	0.0	1.7	i
- C[C@@H]1CN([C@@H](C)CO)C(=O)c2cc(-c3ccncc3)cnc2O[C@@H]1CN(C)C(=O)CN1CCOCC1
→ 3.4	9.2	-1.3	-3.2	i
- COc1ccc(CCN2CCC(CN3C(=S)NC[C@@H]3CC(C)C)CC2)cc1OC
→ 7.3	0.9	1.0	8.4	i
- COc1cc(C2c3cc4c(cc3OC(N3CCCCC3)C2C)OCO4)cc(OC)c1O (stereo not given)
→ -0.1	3.5	3.9	-10.6	i
- CN(CC(=O)Nc1ccc(F)c(F)c1F)C(=O)Cc1ccc(S(=O)(=O)N2CCOCC2)s1
→ 2.6	3.8	-1.3	0.7	i
- Cc1ccc(S(=O)(=O)Nc2ccc3c(c2)CC(=O)N([C@@H](C)CO)C[C@@H](C)[C@@H](CN(C)C(=O)Nc2cccc4ccccc24)O3)cc1
→ 1.6	-1.4	4.3	-3.7	i
- COc1ccc(C#Cc2ccc3c(c2)O[C@H](CN(C)C)[C@@H](C)CN([C@H](C)CO)S3(=O)=O)cc1
→ -23.1	-65.0	27.2	8.8	i
- O=C(N[C@H]1CC[C@H](CCNC(=O)c2cnccn2)O[C@@H]1CO)c1ccc2c(c1)OCO2
→ 1.6	1.7	-2.1	0.0	i
- C[C@H]1CN([C@@H](C)CO)C(=O)c2cc(-c3ccccc3F)cnc2O[C@H]1CN(C)C(=O)NC1CCCC1
→ -4.1	5.5	0.4	-2.7	i
- ClC(Cl)(Cl)C1=NCc2nnn(Cc3ccccc3)c2N1
→ 13.4	20.0	0.8	2.2	i
- C[C@H]1CN([C@@H](C)CO)S(=O)(=O)c2ccc(-c3cccnc3)cc2O[C@H]1CN(C)C(=O)c1cccc(F)c1
→ -2.1	-1.2	-1.1	4.3	i
- COc1ccc(NC(=O)Nc2ccc3c(c2)C(=O)N([C@H](C)CO)C[C@@H](C)[C@H](CN(C)C)O3)cc1
→ 3.3	1.2	-2.6	-0.1	i
- Cc1ccc(S(=O)(=O)N2CC[C@@H]3[C@@H](CO)N(C)c4ccc(-c5cccc(C#N)c5)cc4[C@@H]32)cc1
→ -2.0	7.8	-5.5	0.8	i
- CCN1CCN(c2oc(-c3ccccc3)nc2S(=O)(=O)c2ccc(C)cc2)CC1
→ -33.1	-27.4	-15.0	13.3	i
- COc1ccc(C#Cc2ccc([C@@H]3[C@H]4CN(C(=O)NC(C)C)CC(=O)N4[C@H]3CO)cc2)cc1
→ -4.3	3.7	-3.8	-3.9	i
- O=C(C[C@H]1C[C@H]2c3cc(NS(=O)(=O)c4ccc(F)cc4)ccc3O[C@H]2[C@@H](CO)O1)NCc1cccc(F)c1
→ 0.1	-12.1	0.2	2.9	i
- C[C@H]1CN([C@@H](C)CO)S(=O)(=O)c2ccc(C#Cc3ccncc3)cc2O[C@@H]1CN(C)C(=O)C1CC1
→ 4.1	12.0	0.2	11.8	i
- COc1cccc(S(=O)(=O)Nc2ccc3c(c2)C(=O)N(C)C[C@@H](OC)[C@H](C)CN[C@@H](C)CO3)c1
→ -1.7	-4.4	1.1	-2.7	i
- CNC(=O)C[C@H]1C(=O)N(c2ccc(OC)cc2)C[C@@H]1C
→ 7.2	6.9	-1.2	-1.0	i
- C/C=C/c1ccc2c(c1)O[C@H](CN(C)C(=O)CC1CC1)[C@@H](C)CN([C@H](C)CO)S2(=O)=O
→ -1.7	-5.3	-2.1	1.1	i
- Cc1ccc(S(=O)(=O)Nc2ccc3c(c2)CC(=O)N([C@H](C)CO)C[C@@H](C)[C@H](CN(C)S(=O)(=O)c2cn(C)cn2)O3)cc1
→ 1.5	-3.0	-4.5	-0.8	i
- Cc1ccc(S(=O)(=O)NCC[C@@H]2CC[C@H](NC(=O)CC3CC3)[C@H](CO)O2)cc1
→ 1.8	8.5	-1.5	-5.5	i
- CCCC(=O)Nc1ccc2c(c1)OC[C@@H](C)N(Cc1ccccc1)C[C@H](C)[C@H](OC)CN(C)C2=O
→ -3.9	-6.0	3.9	2.5	i
- Cc1ccc(N2CCN(C3C(=O)Nc4ccccc4-n4nnnc43)CC2)cc1 (stereo not given)
→ 5.8	2.0	5.8	7.2	i
- CCCC1NC(=O)c2cc3ccccc3cc2-n2c1nc1cc(F)ccc1c2=O (stereo not given)
→ -8.7	-10.9	2.7	1.5	i
- C[C@H]1CN([C@@H](C)CO)C(=O)c2cccc(NC(=O)C3CCOCC3)c2O[C@H]1CN(C)Cc1ccc(C(=O)O)cc1
→ 0.0	-1.7	-1.6	0.9	i
- Cc1cccc(C)c1NC(=O)C(C1CC1)n1c(=O)c(-c2ccccc2)nc2ccccc21 (stereo not given)
→ -10.7	-24.3	-7.9	10.0	i
- C[C@@H]1CN([C@H](C)CO)C(=O)c2cccc(NC(=O)c3cnccn3)c2O[C@H]1CN(C)Cc1ccc(C(=O)Nc2ccccc2N)cc1
→ -2.0	-3.6	1.8	0.4	i
- Cc1ccc(S(=O)(=O)N(C)C[C@@H]2OCc3ccccc3-c3c(n(C)c4ccccc34)C(=O)N([C@H](C)CO)C[C@@H]2C)cc1
→ 10.9&2.3	13.9&8.3	0.2&-5.5	4.2&-1.3	i
- C[C@@H]1CN([C@H](C)CO)C(=O)c2cc(C#CC3CC3)cnc2O[C@H]1CN(C)S(C)(=O)=O
→ -3.0	-2.2	-3.4	0.9&-3.9&-6.7	i
- Cc1cccc(-c2cnc(C(O)Cc3ccccc3)[nH]2)c1 (stereo not given)
→ 6.0	-0.9	-2.4	3.8	i
- O=C(C[C@H]1C[C@H]2c3cc(NC(=O)Nc4ccccc4)ccc3O[C@H]2[C@H](CO)O1)NCc1ccncc1
→ 0.0	0.3	-2.1	0.3	i
- COCCNC(=O)C[C@@H]1C=C[C@H](NS(=O)(=O)c2ccc(C)cc2)[C@@H](CO)O1
→ 3.1	-2.8	-2.4	0.3	i
- O=C(Nc1cccc(F)c1)N1CCCCN2[C@H](CO)[C@H](c3ccc(C#Cc4cccnc4)cc3)[C@@H]2C1
→ -1.7	-10.2	1.5	-3.9	i
- Cc1noc(C)c1S(=O)(=O)Nc1ccc2c(c1)C(=O)N([C@@H](C)CO)C[C@@H](C)[C@H](CN(C)S(=O)(=O)c1ccc(Cl)cc1)O2
→ 1.8	5.3	-1.1	-16.8	i
- Cc1cc(C)nc(NS(=O)(=O)c2ccc(NCN3C(=O)c4ccccc4C3=O)cc2)n1
→ 15.1	10.3	1.2	3.6	i
- C/C=C/c1ccc2c(c1)O[C@@H](CN(C)C(=O)C1CCCCC1)[C@H](C)CN([C@H](C)CO)S2(=O)=O
→ -8.1	-24.9	-0.9	4.7	i
- CNC[C@H]1OCCCC[C@H](C)Oc2ccc(NC(=O)C3CCCCC3)cc2C(=O)N([C@H](C)CO)C[C@@H]1C
→ 3.8	2.4	-3.4	0.2	i
- CC(=O)N(C)C[C@@H]1Oc2cc(-c3cncnc3)ccc2S(=O)(=O)N([C@H](C)CO)C[C@H]1C
→ -0.8	-1.5	-2.6	-2.6	i

By substructure, those above with a cyano group.
The line under a structure holds: rRNA inh HTS	rRNA inh HTS OD600	rRNA inh HTS RFP	MLL AF4-AF9 inh	FGF22 binding
- N#Cc1ccc(S(=O)(=O)N2CCN(C(=O)c3cn(-c4ccccc4)nc3-c3cccnc3)CC2)cc1
→ 8.0	19.4	-3.6	1.0	i
- COc1ccc(-c2ccc([C@@H]3[C@@H](CO)N(C(=O)c4cccc(F)c4)[C@H]3C#N)cc2)cc1
→ -3.6	11.8	-3.6	-0.9	i
- Cc1ccc(S(=O)(=O)N2CC[C@@H]3[C@@H](CO)N(C)c4ccc(-c5cccc(C#N)c5)cc4[C@@H]32)cc1
→ -2.0	7.8	-5.5	0.8	i

Other records:
The line under a structure holds: rRNA inh HTS	rRNA inh HTS OD600	rRNA inh HTS RFP	MLL AF4-AF9 inh	FGF22 binding
- O=C(Nc1ccccc1)N1C[C@H]2[C@@H](c3ccccc31)[C@@H](CO)N2C(=O)c1ccncc1
→ 3.4	-0.2	-2.2	-12.4	+
- C[C@@H]1CN([C@H](C)CO)C(=O)c2cc(NS(=O)(=O)c3ccc(F)cc3)ccc2O[C@@H](C)CCCCO[C@@H]1CN(C)S(C)(=O)=O
→ 3.2	-2.4	-0.4	0.4	i
- C[C@H](CO)N1C[C@H](C)[C@@H](CN(C)C(=O)c2ccncc2)Oc2ncc(C3=CCCC3)cc2C1=O
→ 2.9	10.6	-1.0	-1.7	i
- COC(=O)[C@@]1(Cc2ccc(F)cc2)[C@H]2c3cc(C(=O)N4CCCC4)n(CC4CC4)c3C[C@H]2CN1C(=O)c1ccccc1
→ 0.9	-1.6	2.3	13.9	i
- CC(C)C#Cc1ccc([C@@H]2[C@@H](CO)N(C(=O)c3cccc(F)c3)[C@H]2C#N)cc1
→ -0.4	-31.6	10.3	-0.3	i
- COc1ccc(NC(=O)N(C)C[C@H]2OCCCC[C@H](C)Oc3ccc(NS(=O)(=O)c4ccc(F)cc4)cc3C(=O)N([C@@H](C)CO)C[C@H]2C)cc1
→ 0.6	-5.5	-0.1	-0.9	i
- COc1ccc2[nH]c3c(c2c1)CCN1C(=O)C(CC(=O)NCCN2CCOCC2)C[C@H](C(=O)N2CCOCC2)[C@@]31CCC1CCCC1 (stereo not given in full)
→ 6.8	9.1	0.4	0.4	i
- C[C@@H]1CN([C@@H](C)CO)C(=O)c2cc(C#CC3(O)CCCC3)cnc2O[C@H]1CN(C)C(=O)CN(C)C
→ 4.3	2.5	1.8	-0.9	i
- CSc1ccc(CN2CCC(C)(Oc3cccc(C#N)c3)C2)cc1 (stereo not given)
→ -5.7	-7.4	0.9	0.3	i
- CN1CCN(C(=O)c2cc3c(c(-c4cccc(-c5ccc(C(=O)N(C)C)cc5)c4)n2)[C@H](CCO)N([S@@](=O)C(C)(C)C)C3)CC1
→ 3.7	10.2	-1.1	-8.4	i
- Cc1ccc(S(=O)(=O)N2[C@H](CC(=O)c3cccs3)OC[C@@H]2C(C)C)cc1
→ -6.8	-3.8	3.7	-4.1	i
- N#C[C@@H]1[C@H](c2ccc(-c3ccc(F)cc3)cc2)[C@@H](CO)N1C(=O)Cc1ccccc1
→ -55.0	-73.2	-17.6	-0.4	i
- COc1ccc(S(=O)(=O)N(C)C[C@@H]2Oc3c(NC(=O)NC(C)C)cccc3C(=O)N([C@@H](C)CO)C[C@@H]2C)cc1
→ 1.8	1.4	-0.4	-2.0	i
- C[C@H](CO)N1C[C@H](C)[C@@H](CN(C)C(=O)NC2CCCC2)Oc2cc(-c3cncnc3)ccc2S1(=O)=O
→ 4.6	14.0	1.0	-0.8	i
- COc1ccc(CNC[C@H]2O[C@@H](n3ccc(=O)[nH]c3=O)[C@H](O)[C@@H]2O)cc1OC
→ 17.6	3.3	-0.7	-0.3	/
- CN(C)C(=O)c1cccc(-c2ccc3n(c2=O)C[C@@H]2N[C@H]3[C@H](C(=O)NC3CCC3)[C@H]2CO)c1
→ 0.7	-3.8	0.5	-0.2	i
- C[C@H](CO)N1C[C@H](C)[C@H](CN(C)Cc2ccc(Oc3ccccc3)cc2)Oc2ccc(NS(=O)(=O)c3ccc(Cl)cc3)cc2C1=O
→ 1.8	0.7	3.9	1.6	i
- CN1C(=O)c2cc(NC(=O)c3cccc(F)c3)ccc2OC[C@@H]2O[C@@H](CC(=O)N3CCc4ccccc4C3)CC[C@H]21
→ -10.6	-6.8	0.2	-0.3	i
- CCCN(C)C[C@@H]1Oc2cc(C#CCC(C)C)ccc2S(=O)(=O)N([C@H](C)CO)C[C@@H]1C
→ 0.0	-17.9	29.4	5.3	i
- O=C(C[C@@H]1CC[C@H](NS(=O)(=O)c2ccccc2F)[C@@H](CO)O1)NCCCN1CCOCC1
→ 1.1&11.0	4.3&15.5	-1.9&1.3	-1.1&-1.5	i
